2A StopGo – lowers the luciferase signal of an FMDV 2A StopGo reporter. human cells with a luciferase reporter of 2A StopGo recoding; control for the full effect not named in the record. Potency, µM (top dose mostly 57.9 µM), for inactives: at the highest dose signal change, negative = less light. 410,000 tested, 1.2% active. AID 1159524; active = well fitted falling curve with a large enough effect; inconclusive = small, poorly fitted or top-dose-only effect; inactive = no such curve, though single readings can be large or run the other way; tested in HEK293T cells; note: nearly all actives have a fitted effect of over 45% in size; luciferase light after 4 h
* hit, by the source's call; ? = inconclusive; [ ] = dose if it differs, or a comment. % is set by controls: 0 for no effect and ±100 for the full control effect; potency is the fitted concentration of half-maximal effect.

Molecule | 2A StopGo
COc1ccc2c(c1)-c1nc(-n3ncc(C(=O)NC(C)(C)CO)c3C3CC3)ncc1CC2 | -20%
COCC(=O)Nc1cc(C(=O)N2CCOc3ccccc3C2)cc2nc(-c3cccnc3)n(C)c12 | 7%
Cc1ccccc1C1(CC(=O)N2CC3CC4CC(C3)CC2C4)CC(=O)N(Cc2cccnc2)C1=O (stereo not given) | 7%
CSc1sc(C(=O)O)c2c1C(=O)CC(C)(C)C2 | -8%
Cc1c(C(=O)NCCc2ccccn2)cnn1-c1nccc(-c2cccs2)n1 | 2%
NCCCNC(=S)NCCCN(Cc1ccc(Cl)cc1)c1ccc(Br)cn1 | -26%
Cc1ncc2c(c1CNC(=O)/C=C/c1cccs1)CCN(C(=O)c1noc3c1CCCC3)C2 | -2%
Cc1cc2c(c(-c3ccc4nc(C)ccc4c3)c1)OC(CNC(=O)Cc1ccn(C)c1)C2 (stereo not given) | 5%
Cc1ccc(F)cc1CNC(=O)c1sc2ncnc(NCC3CCCO3)c2c1C (stereo not given) | -19%
NC(C(=O)O)c1cc(O)c(Cl)c(O)c1 (stereo not given) | 1%
COc1ccc(C(=O)N(Cc2cc3cccc(C)c3nc2N(C)C)CC2CCCO2)cc1 (stereo not given) | -3%
COc1ccc(CN2CCOc3ccc(CN4CCCCC4CO)cc3C2)c(OC)c1 (stereo not given) | -2%
Cc1occc1C(=O)Nc1cccc(-c2nc(CNC(=O)c3ccc(N4CCCCC4)cc3)c(C)o2)c1 | 20%
Cc1ccccc1C(=O)NC(C)c1nnc2n1CCN(Cc1ccc(F)cc1)CC2 (stereo not given) | -1%
COC(=O)C1CCN(Cc2ccc3c(c2)CN(C(=O)c2ccc4nc(C)c(C)nc4c2)CCO3)CC1 | -1%
Cc1cc(C(=O)NCc2nc(-c3cccc(NC(=O)c4cc(C)oc4C)c3)oc2C)nc(C)n1 | -21%
COc1ccc(CCN)cc1 | -9%
Cc1cc(C(=O)NCC2CCC3(CCN(Cc4cccc(F)c4F)CC3)O2)n(C)n1 (stereo not given) | -29%
COc1cc(=O)n2c(c1C(=O)N(C)Cc1cscn1)CCN(Cc1c(C)[nH]c3ccccc13)CC2 | -6%
COc1ccc2c(c1)CCc1cnc(-n3ncc(C(=O)NCCCN4CCOCC4)c3C)nc1-2 | -4%
Cn1cc(CN2CCOc3ccc(C(O)C4CCCCC4)cc3C2)cn1 (stereo not given) | -29%
C#CCN(Cc1nc(N2CCOCC2)c2ccc(Cl)cc2n1)Cc1ccco1 | -7%
CCOC(=O)N1CCN(c2nc(CN3CCCCC3CCO)nc3c(C)cccc23)CC1 (stereo not given) | -10%
CC(=O)c1ccc(-c2cc(F)cc3c2OC(CNC(=O)Cc2cn4ccsc4n2)C3)s1 (stereo not given) | 7%
COc1cc(=O)n2c(c1C(=O)NC(C)c1ccco1)CCN(C(=O)c1ccc3c(c1)OCCO3)CC2 (stereo not given) | -2%
Cc1ncc2c(c1CNC(=O)c1ccsc1)CCN(C(=O)c1c(F)cccc1Cl)C2 | -8%
OC(c1cccnc1)c1ccc2c(c1)CN(Cc1cccc3c1OCO3)CCO2 (stereo not given) | 0%
COc1ccccc1-n1cc(CN2CCOc3ccc(CN4C[C@@H](C)O[C@@H](C)C4)cc3C2)cn1 | -22%
CC(=O)c1ccc(F)c(-c2cc(C)cc3c2OC(CNC(=O)C2CCCCN2C)C3)c1 (stereo not given) | -14%
Cc1ccc(NS(=O)(=O)c2cc3c(cc2Br)NC(=O)CO3)cc1C | 16%
CC(=O)OC1CCC2C3CCC4=CC(=O)CCC4(C)C3CCC2(C)[C@]1(C)O (stereo not given in full) | ?
COc1ccccc1C1CN(Cc2c(O)cccc2OC)Cc2ccccc2O1 (stereo not given) | -7%
Cc1ccc(CNc2ncnc3sc(C(=O)N4CCC(N5CCCC(O)C5)CC4)c(C)c23)o1 (stereo not given) | -2%
O=C(NC[C@@H]1CCCN2CCCC[C@H]12)c1cnn(-c2nccc(-c3ccco3)n2)c1C1CC1 | -9%
O=C(O)C1NCCN(C(=O)c2ccc3c(ccc4ccccc43)c2)C1C(=O)O (stereo not given) | -12%
CC(C)N1CCN(c2ccc(C(=O)c3c(-c4ccc(O)cc4)sc4cc(O)ccc34)cc2)CC1 | 23%
OC[C@H]1O[C@@H](n2cnc3c(N[C@H]4C[C@H]5CC[C@@H]4C5)ncnc32)[C@H](O)[C@@H]1O | -10%
O=C(CCc1cccnc1)NCC1Cc2cccc(-c3ncccn3)c2O1 (stereo not given) | -10%
CC[C@@H](C)CCCCC(=O)N[C@H](CCN)C(=O)N[C@@H](C(=O)N[C@H](CCN)C(=O)N[C@@H]1CCNC(=O)C([C@@H](C)O)NC(=O)[C@@H](CCN)NC(=O)[C@@H](CCN)NC(=O)[C@@H](CC(C)C)NC(=O)[C@@H](Cc2ccccc2)NC(=O)[C@@H](CCN)NC1=O)[C@@H](C)O (stereo not given in full) | -2%
CCc1cc(C(=O)NCCN2Cc3ccccc3OC(c3ccsc3)C2)n(C)n1 (stereo not given) | -20%

Reformatted: results already given
COc1ccc2c(c1)CCc1cnc(-n3ncc(C(=O)NCCCN4CCOCC4)c3C)nc1-2
  2A StopGo: -4%

Cn1cc(CN2CCOc3ccc(C(O)C4CCCCC4)cc3C2)cn1 (stereo not given)
  2A StopGo: -29%

C#CCN(Cc1nc(N2CCOCC2)c2ccc(Cl)cc2n1)Cc1ccco1
  2A StopGo: -7%

(list continues)
Molecule | 2A StopGo
Cc1cnc(C)c(-c2cccc3c2OC(CNC(=O)/C=C/c2ccncc2)C3)n1 (stereo not given) | -9%
Cc1c(C(=O)NCC(C)(C)N2CCOCC2)cnn1-c1ncc2c(n1)-c1ccccc1CCC2 | -11%
Cc1nc(C)n(CC(=O)N2CCOc3ccc(CN4CCN(C)C[C@@H]4c4ccccc4)cc3C2)n1 | -15%
COc1c(O)c2c(=O)cc(OC)c3c4c(OC)cc(=O)c5c(O)c(OC)c(C[C@@H](C)OC(=O)c6ccccc6)c(c(c1C[C@@H](C)OC(=O)Oc1ccc(O)cc1)c23)c54 | -17%[4.63 µM]
CN(C(=O)c1cnn(-c2nccc(-c3ccccc3C(F)(F)F)n2)c1C1CC1)C1CCOC1 (stereo not given) | 33%[activator]
Cc1ccccc1N1CCN(S(=O)(=O)CC23CCC(CC2NC(=O)C(N)CCS(C)(=O)=O)C3(C)C)CC1 (stereo not given) | -10%
COc1ccccc1-c1ccc(C(=O)N(C)CC2COCCO2)c(N2CCN(c3ccccc3F)CC2)n1 (stereo not given) | -12%
Cc1cnc(-n2ncc(C(=O)NCCc3ccncc3)c2-c2cccs2)nc1-c1ccc(F)cc1 | -6%
Cc1nc2cc(NC(=O)[C@@H]3C[C@@H](Sc4ccccn4)CN3Cc3ccccc3F)ccc2s1 | 10%
OCCOCCN1CCN(Cc2cccc(Oc3ccccc3)c2)CC1 | -6%
COc1cc(CN2CCc3nnc(C(NS(C)(=O)=O)C(C)C)n3CC2)ccc1F (stereo not given) | -8%
CN1CC[C@@H]2CN3CCc4cccc(c43)[C@@H]2C1 | -8%
Cc1cnc(-n2ncc(C(=O)NCCc3ccccn3)c2C)nc1-c1ccc(F)cc1 | -1%
OCCN1CCN(Cc2ccc3c(c2)CN(Cc2ccc4ccccc4c2)CCO3)CC1 | 8%
COC(=O)[C@@H]1CCCN1Cc1ccc2c(c1)CN(Cc1ccc(OC)c(C)c1)CCO2 | 2%
CSc1nccc(-c2cc(Cl)c3c(c2)CC(CNC(=O)c2ccc(C)nc2)O3)n1 (stereo not given) | -20%
O=C(O)CCC(CP(=O)(O)O)C(=O)O (stereo not given) | -4%
COc1cccc(CCNc2ncnc3sc(C(=O)N4CCN(C)CC4)c(C)c23)c1 | -2%
COc1ccccc1-c1cc2c(c(OC)c1)OCCN(CCC(C)c1ccc(C)o1)C2 (stereo not given) | -11%
CN(Cc1ccon1)C(=O)c1cnn(-c2nccc(-c3ccc4c(c3)OCO4)n2)c1C1CC1 | 40%[activator]
COc1cccc(C2(CC(=O)N3CCCCC3CO)CC(=O)N(C)C2=O)c1 (stereo not given) | -11%
COc1ccc(-c2ccncc2)cc1OC | -8%
Cc1cnc(SCc2ccccn2)nc1C1CCCN(C(=O)c2noc3c2CCCC3)C1 (stereo not given) | 20µM*
COc1ccc(C(=O)NCC2Cc3c(F)ccc(-c4nc(C)cnc4C)c3O2)cc1F (stereo not given) | -5%

17 entries out of the list, sorted by SMILES length, low to high.
Molecule | 2A StopGo
COc1ccc(-c2ccncc2)cc1OC | -8%
O=C(O)CCC(CP(=O)(O)O)C(=O)O (stereo not given) | -4%
OCCOCCN1CCN(Cc2cccc(Oc3ccccc3)c2)CC1 | -6%
CN1CC[C@@H]2CN3CCc4cccc(c43)[C@@H]2C1 | -8%
COc1cccc(C2(CC(=O)N3CCCCC3CO)CC(=O)N(C)C2=O)c1 (stereo not given) | -11%
OCCN1CCN(Cc2ccc3c(c2)CN(Cc2ccc4ccccc4c2)CCO3)CC1 | 8%
COc1cc(CN2CCc3nnc(C(NS(C)(=O)=O)C(C)C)n3CC2)ccc1F (stereo not given) | -8%
COc1ccccc1-c1cc2c(c(OC)c1)OCCN(CCC(C)c1ccc(C)o1)C2 (stereo not given) | -11%
COc1ccc(C(=O)NCC2Cc3c(F)ccc(-c4nc(C)cnc4C)c3O2)cc1F (stereo not given) | -5%
CSc1nccc(-c2cc(Cl)c3c(c2)CC(CNC(=O)c2ccc(C)nc2)O3)n1 (stereo not given) | -20%
COC(=O)[C@@H]1CCCN1Cc1ccc2c(c1)CN(Cc1ccc(OC)c(C)c1)CCO2 | 2%
Cc1cnc(-n2ncc(C(=O)NCCc3ccncc3)c2-c2cccs2)nc1-c1ccc(F)cc1 | -6%
CN(Cc1ccon1)C(=O)c1cnn(-c2nccc(-c3ccc4c(c3)OCO4)n2)c1C1CC1 | 40%[activator]
COc1ccccc1-c1ccc(C(=O)N(C)CC2COCCO2)c(N2CCN(c3ccccc3F)CC2)n1 (stereo not given) | -12%
Cc1nc(C)n(CC(=O)N2CCOc3ccc(CN4CCN(C)C[C@@H]4c4ccccc4)cc3C2)n1 | -15%
Cc1ccccc1N1CCN(S(=O)(=O)CC23CCC(CC2NC(=O)C(N)CCS(C)(=O)=O)C3(C)C)CC1 (stereo not given) | -10%
COc1c(O)c2c(=O)cc(OC)c3c4c(OC)cc(=O)c5c(O)c(OC)c(C[C@@H](C)OC(=O)c6ccccc6)c(c(c1C[C@@H](C)OC(=O)Oc1ccc(O)cc1)c23)c54 | -17%[4.63 µM]

(listing goes on)
Molecule | 2A StopGo
COC(=O)[C@@H]1CCCN1C(=O)c1cc(NC(=O)C2CCC2)c2c(c1)nc(-c1ccncc1)n2C | -10%
O=C(NCC1Cc2cccc(-c3cncnc3)c2O1)C1CC1 (stereo not given) | -14%
Cc1ncc2c(c1CNC(=O)c1cncs1)CCN(C(=O)c1cccc(-c3cccc(F)c3)c1)C2 | -4%
COc1ccc(CN2Cc3ccccc3OC(c3ccccc3OC)C2)cc1O (stereo not given) | -2%
COc1ccccc1-c1ccnc(-n2ncc(C(=O)N(C)C(C)c3ccon3)c2C2CC2)n1 (stereo not given) | 47%[activator]
COC(=O)c1ccc(C(=O)NCC2Cc3cc(F)cc(-c4cncnc4)c3O2)cc1 (stereo not given) | 1%
CSc1ncccc1C(=O)NCC1Cc2cc(-c3cnccn3)ccc2O1 (stereo not given) | -8%
O=C(CN1Cc2ccccc2OC(c2ccccc2)C1)NCc1cccnc1 (stereo not given) | 54%[activator]
CSc1ccc(-c2ccc3c(c2)CC(CNC(=O)Cn2nc(C)nc2C)O3)cc1 (stereo not given) | -8%
CC[C@@H](C)[C@H](NS(=O)(=O)c1cccc2ccccc12)C(=O)N[C@H](C=O)Cc1c[nH]c2ccccc12 | -16%
CS(=O)(=O)c1ccc(-c2cccc3c2OC(CNC(=O)c2ccnc(Cl)c2)C3)cc1 (stereo not given) | -23%
COc1cc(=O)n2c(c1C(=O)NC(C)c1ccco1)CCN(C(=O)c1cn3ccc(C)cc3n1)CC2 (stereo not given) | 12%
Cc1c(P(=S)(c2ccccc2)c2ccccc2)[n+]2ccccc2n1C/C=C/c1ccccc1 | ?
COc1cc(-c2nc(C)cnc2C)cc2c1OCCN(C(=O)Cn1nc(-c3ccccc3)c3ccccc3c1=O)C2 | 3%
COc1ccc(OC)c(-c2ccnc(-n3ncc(C(=O)N4CCN(CCO)CC4)c3C3CC3)n2)c1 | -8%
CC(O)(COc1ccccc1)c1ccc2c(c1)CN(Cc1cn[nH]c1-c1ccc(F)cc1)CCO2 (stereo not given) | ?

Source: PubChem

These rows are one share of the data. The share of hits here may be higher or lower than overall.
